MLL AF4-AF9 inh – blocks AF4 peptide binding to human AF9 | hit rate 0.47% among 350,000 | P42568 | inhibition, % at 10 µM | AlphaScreen, biotin-AF4 peptide binding to FLAG-AF9;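 active = every replicate reaching a set inhibition limit, whatever the replicate mean, cut at about 25% in these data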;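 note: 0% = plate neutral control median and 100% = total signal loss; the record names both 10 and 1 µM as test concentration; the first replicate is given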
Target sequence (P42568 whole entry, looked up): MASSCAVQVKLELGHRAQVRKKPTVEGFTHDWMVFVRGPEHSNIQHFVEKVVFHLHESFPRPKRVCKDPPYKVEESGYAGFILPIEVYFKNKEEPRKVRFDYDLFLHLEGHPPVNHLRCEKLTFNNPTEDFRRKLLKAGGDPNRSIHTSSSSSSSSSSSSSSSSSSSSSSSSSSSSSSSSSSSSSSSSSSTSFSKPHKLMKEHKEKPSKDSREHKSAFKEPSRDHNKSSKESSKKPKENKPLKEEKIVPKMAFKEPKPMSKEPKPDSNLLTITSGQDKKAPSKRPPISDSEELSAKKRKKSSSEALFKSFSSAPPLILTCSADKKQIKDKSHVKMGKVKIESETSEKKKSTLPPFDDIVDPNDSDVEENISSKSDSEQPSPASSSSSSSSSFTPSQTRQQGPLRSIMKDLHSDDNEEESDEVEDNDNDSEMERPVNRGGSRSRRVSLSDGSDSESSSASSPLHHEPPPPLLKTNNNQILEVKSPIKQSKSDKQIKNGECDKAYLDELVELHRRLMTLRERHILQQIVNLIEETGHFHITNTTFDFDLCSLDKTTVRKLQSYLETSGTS
Ecoli rRNA inh – inhibits bacterial ribosomal RNA function over humanized ribosomes; E. coli WT GFP vs humanized-ribosome RFP mutants, fluorescence, 24 h; stronger effect = lower value; DMSO median 0, no signal -100; GFP signal change (wild-type ribosome), % (concentration not given with the values); hit rate 1.6% among 350,000;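 active = significant combined selectivity score with lowered wild-type GFP, culture density cut under 30%, mutant RFP and density less affected; inactive = any of these conditions unmet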; note: one replicate is shown; some compounds called inactive have numbers as strong as hits
FGF22 binding – FGF22 (human) thermal shift binding | recombinant FGF22 thermal shift, SYPRO orange fluorescence; percent of sucrose octasulfate shift, DMSO zero | calls only at 9.99 µM | Q9HCT0 | hit rate 1.5% among 340,000 | AID 651658;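 active = melting point raised past a set limit in the mean and every replicate; three in four hits are not shown here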
Target sequence (Q9HCT0 whole entry, looked up): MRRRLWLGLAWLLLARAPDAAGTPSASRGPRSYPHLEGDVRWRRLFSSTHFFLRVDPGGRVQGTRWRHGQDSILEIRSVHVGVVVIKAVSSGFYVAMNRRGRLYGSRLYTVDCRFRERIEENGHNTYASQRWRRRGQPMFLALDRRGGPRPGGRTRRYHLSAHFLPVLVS
Ecoli rRNA inh OD600 – also measured in Ecoli rRNA inh; calls as there; OD600 change, %; measured here: OD600 growth;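 optical density of the mix in the first replicate; 0 = DMSO median and -100 = no signal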
Ecoli rRNA inh RFP – further read-out of Ecoli rRNA inh, marked with its call; RFP signal change, %; measured here: RFP humanized mutant strains;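 first replicate; 0 = DMSO median and -100 = no signal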
Numbers without * were called inactive; i = inactive; nt = no result given; + = active, no number; & = joins results of further samples. Not all compounds are listed, so the mix of outcomes need not match the whole.

SMILES	MLL AF4-AF9 inh	Ecoli rRNA inh	Ecoli rRNA inh OD600	Ecoli rRNA inh RFP	FGF22 binding
COC(=O)[C@@]12C[C@@H](CC(=O)NCc3cccs3)C(=O)N(CCc3ccc(OC)c(OC)c3)C1=CCC(C)(C)C2	4.9	-6	-12	5.3	i
CC(=O)Nc1ccc(-c2ccnc3c2CC(C)(C(=O)NCC2CC2)O3)cc1 (centres undefined)	-2.2	-3	3	0.3	i
O=C1C2C3C=CC(O3)C2C(=O)N1Cc1ccncc1 (centres undefined)	-2.3	21	24	1.1	i
Cc1noc(C)c1NC(=O)Nc1ccc2c(c1)C(=O)N([C@@H](C)CO)C[C@H](C)[C@H](CN(C)C(=O)C1CCCCC1)OCCCC[C@@H](C)O2	1.2	2	13	1.4	i
C[C@@H]1CN([C@H](C)CO)C(=O)c2cc(NS(C)(=O)=O)ccc2O[C@H]1CN(C)CC1CCCCC1	-11	3	6	-1.1	i
CCC/C=C/c1ccc(CN2C(C(C)C)C(=O)N(Cc3cn(Cc4ccco4)nn3)CCS2(=O)=O)cc1 (centres undefined)	-8.3	6	2	0.0	i
CCc1nc2c(OCc3cccc(Cl)c3)cccn2c1N(C)C(=O)Nc1ccccc1OC	4.2	13	-1	37	i
CCNC(=O)[C@H]1[C@H](CO)[C@H]2Cn3c(ccc(-c4ccncc4)c3=O)[C@H]2N1Cc1ccc2c(c1)OCO2	1.7	2	4	-2.3	i
CC(=O)N(C)C[C@H]1Oc2ncc(C#CCC3CCCC3)cc2C(=O)N([C@H](C)CO)C[C@@H]1C	-0.4	-3	-20	-5.0	i
C[C@@H]1CN([C@@H](C)CO)C(=O)c2cccc(NC(=O)CCCCCC(=O)Nc3ccccc3N)c2O[C@@H]1CN(C)Cc1ccccc1	-0.2	0	6	-3.2	i
CCC(=O)N1[C@@H]2c3ccc(C4=CCCC4)c(=O)n3C[C@@H]2[C@@H](CO)[C@@H]1C(=O)NC1CCC1	-1.1	5	4	1.8	i
C[C@@H]1CCCCO[C@H](CN(C)C(=O)CCCN(C)C)[C@@H](C)CN([C@@H](C)CO)C(=O)c2cc(NC(=O)CCC(F)(F)F)ccc2O1	0.2	1	4	-0.9	i
C[C@H](O)C#Cc1ccc([C@@H]2[C@@H](CO)N3CCCCN(CC4CC4)C[C@@H]23)cc1	3.4	4	13	-0.5	i
COc1ccc(S(=O)(=O)N(C)C[C@H]2Oc3c(NC(=O)Nc4ccc(C(F)(F)F)cc4)cccc3C(=O)N([C@@H](C)CO)C[C@@H]2C)cc1	-0.4	-4	9	-2.5	i
CC(=O)N(C)C[C@H]1Oc2ncc(C#Cc3cccnc3)cc2C(=O)N([C@@H](C)CO)C[C@@H]1C	-6.2	8	11	0.4	i
CC(C)CC#Cc1ccc2c(c1)O[C@@H](CN(C)C(=O)C1CCC1)[C@H](C)CN([C@@H](C)CO)S2(=O)=O	2.8	-19	-48	21	i
Cc1cccc(NC(=O)c2nc[nH]c2C(=O)N(C)CCO)c1	1.9	-40*	-31*	-3.4*	i
O=C(Nc1cc(F)ccc1F)N1CCCCN2[C@H](C1)[C@@H](c1ccc(-c3ccccc3)cc1)[C@@H]2CO	-5.1	-21	-46	10	i
C[C@@H]1CN([C@@H](C)CO)C(=O)c2cc(C#CCC3CCCC3)cnc2O[C@H]1CN(C)C(=O)c1cnccn1	1.0	2	2	-1.5	i
CC(=O)N(C)C[C@H]1[C@H](c2ccccc2)[C@@H](CO)N1C(=O)C1CCC1	-2.9	2	7	-2.5	i
C[C@@H]1CN([C@@H](C)CO)C(=O)c2cc(N(C)C)ccc2O[C@@H]1CN(C)C	-2.1	1	4	-1.2	i
CN1CCN(C(=O)C[C@H]2CC[C@@H]3[C@H](COC[C@H](O)CN3S(=O)(=O)c3cccc(Cl)c3)O2)CC1	-4.3	0	-11	1.6	i
CC(C)CC#Cc1cnc2c(c1)C(=O)N([C@H](C)CO)C[C@H](C)[C@H](CN(C)Cc1ccc(F)cc1)O2	4.0	-23	-61	30	i
Nc1cc(C(=O)N2CCN(c3cccc(Cl)c3)CC2)ccc1N1CC2CC(C1)c1cccc(=O)n1C2 (centres undefined)	6.2	-1	-26	-0.6	i
CCCNC(=O)N(C)C[C@H]1Oc2ncc(C3=CCCCC3)cc2C(=O)N([C@@H](C)CO)C[C@H]1C	-11	0	-4	-2.6	i
CCNC(=O)C1(C)CCCN(C(=O)c2ccc3sccc3c2)C1 (centres undefined)	-2.1	11	20	0.1	i
C[C@@H]1CN([C@H](C)CO)C(=O)Cc2cc(NS(C)(=O)=O)ccc2O[C@H]1CN(C)S(=O)(=O)c1ccc(F)cc1	-1.7	3	4	0.4	i
CC1(c2nnnn2Cc2ccccc2)CCC(=O)N1CC(F)(F)F (centres undefined)	-1.2	2	11	-1.5	i
CCn1ncc2c(=O)c(C(=O)c3ccccc3)c[nH]c21	-2.8	2	8	-0.1	i
Cc1ccccc1-c1ccc2c(c1)O[C@@H](CN(C)C(=O)C1CC1)[C@H](C)CN([C@H](C)CO)S2(=O)=O	0.2	-3	-16	0.4	i

Given with two lines to a compound: part of the list above
Results follow in this order: MLL AF4-AF9 inh	Ecoli rRNA inh	Ecoli rRNA inh OD600	Ecoli rRNA inh RFP	FGF22 binding
CCNC(=O)C1(C)CCCN(C(=O)c2ccc3sccc3c2)C1 (centres undefined)
 : -2.1	11	20	0.1	i
C[C@@H]1CN([C@@H](C)CO)C(=O)c2cc(N(C)C)ccc2O[C@@H]1CN(C)C
 : -2.1	1	4	-1.2	i

Part of the list above, showing only FGF22 binding and MLL AF4-AF9 inh:
| structure | FGF22 binding | MLL AF4-AF9 inh |
| --- | --- | --- |
| CCNC(=O)C1(C)CCCN(C(=O)c2ccc3sccc3c2)C1 (centres undefined) | i | -2.1 |
| CC1(c2nnnn2Cc2ccccc2)CCC(=O)N1CC(F)(F)F (centres undefined) | i | -1.2 |
| CN1CCN(C(=O)C[C@H]2CC[C@@H]3[C@H](COC[C@H](O)CN3S(=O)(=O)c3cccc(Cl)c3)O2)CC1 | i | -4.3 |
| Cc1ccccc1-c1ccc2c(c1)O[C@@H](CN(C)C(=O)C1CC1)[C@H](C)CN([C@H](C)CO)S2(=O)=O | i | 0.2 |

(more compounds)
SMILES	MLL AF4-AF9 inh	Ecoli rRNA inh	Ecoli rRNA inh OD600	Ecoli rRNA inh RFP	FGF22 binding
Cc1noc(C)c1S(=O)(=O)Nc1cccc2c1O[C@H](CN(C)Cc1ccc(Cl)c(Cl)c1)[C@H](C)CN([C@H](C)CO)C2=O	4.2	-5	-4	0.1	i
CC1=CC2C(C(O)CC3(C)C2CC(C)C32OCOC23COCO3)C2(C)C/C(=C\O)C(=O)C=C12 (centres undefined)	8.4	4	-15	9.3	i
COc1cccc(-c2ccc3c(c2)[C@@H]2[C@@H](CCN2S(=O)(=O)c2ccccc2OC)[C@H](CO)N3C)c1	3.9	5	20	0.2	i
C[C@@H](NC(=O)C[C@@H]1CC[C@@H](NC(=O)Nc2ccc3c(c2)OCO3)[C@@H](CO)O1)c1ccccc1	0.4	-1	-6	-0.1	i
Cc1ccc(S(=O)(=O)N(C)C[C@@H]2Oc3c(NC(=O)C4CC4)cccc3C(=O)N([C@H](C)CO)C[C@H]2C)cc1	-2.6	5	5	-3.0	i
O=C(NCc1ccccc1Cl)[C@H]1CCCN1C(=O)[C@H]1CCCN1C(=O)c1cccs1	-221	8	0	-1.8	i
C/C=C/c1cnc2c(c1)C(=O)N([C@@H](C)CO)C[C@@H](C)[C@@H](CN(C)C(=O)Nc1cccc(OC)c1)O2	-4.8	-4	8	2.2	i
COc1ccccc1-c1cnc2c(c1)C(=O)N([C@H](C)CO)C[C@@H](C)[C@H](CN(C)Cc1ccc(F)cc1)O2	7.5	-2	-4	6.4	i
CCC(=O)Nc1ccc2c(c1)C(=O)N(C)C[C@H](OC)[C@@H](C)CN(C(=O)Cc1ccccn1)[C@H](C)CO2	-0.7	1	4	1.3	i
CO[C@@H]1CN(C)C(=O)c2ccc(NS(=O)(=O)c3ccc(Cl)cc3)cc2OC[C@@H](C)N(C)C[C@H]1C	-1.3	0&-3	2&0	-1.1&-1.1	i
C[C@H]1CN([C@@H](C)CO)C(=O)c2cc(C#Cc3ccncc3)cnc2O[C@H]1CN(C)S(=O)(=O)c1ccccc1F	-6.7	0	8	-0.2	i
CO[C@@H]1CN(C)C(=O)c2ccc(NC(=O)C3CC3)cc2OC[C@H](C)N(CCC(F)(F)F)C[C@H]1C	2.0	-6	-6	-2.0	i
O=C(Nc1ccn(CCCNCc2cccc3ccccc23)c(=O)n1)OCc1ccccc1	8.8	-8	-3	0.5	nt
COCCNc1nc(Oc2cccc(NC(C)=O)c2)c2sccc2n1	2.9	-10	-5	1.8	i
C[C@@H]1CN([C@@H](C)CO)C(=O)c2cc(NS(C)(=O)=O)ccc2O[C@@H](C)CCCCO[C@H]1CN(C)Cc1ccc(C(F)(F)F)cc1	-0.3	1	6	3.2	i
COc1ccc2c3c(n(C)c2c1)[C@@H](CO)N(C(=O)Cc1ccccn1)CC31CCN(CC2CCCC2)CC1	0.1	8	15	-3.3	i
CO[C@H]1CN(C)C(=O)c2cc(NS(C)(=O)=O)ccc2OC[C@@H](C)N(C(=O)c2ccc3c(c2)OCO3)C[C@@H]1C	-1.8	5	6	-1.6	i
O=S(=O)(c1ccccc1)N1CCCCN2[C@H](C1)[C@@H](c1ccc(-c3ccccc3)cc1)[C@@H]2CO	-4.4	1	-2	2.7	i
Cc1ccccc1S(=O)(=O)NCC[C@@H]1CC[C@@H](NS(=O)(=O)c2ccccc2C)[C@H](CO)O1	-0.1	-5	-8	3.5	i
C[C@H](CO)N1C[C@H](C)[C@H](CN(C)Cc2ccc(F)cc2)Oc2cc(C#CC(C)(C)O)ccc2S1(=O)=O	2.6	-4	-8	0.5	i
C[C@H]1CN([C@@H](C)CO)C(=O)Cc2cc(NS(=O)(=O)c3ccc(Cl)cc3)ccc2O[C@H]1CN(C)S(=O)(=O)c1cn(C)cn1	-0.3	0	4	-0.8	i
CCS(=O)(=O)N1[C@@H](CO)[C@H](c2ccccc2)C12CN(C(=O)C1CC1)C2	-6.1	3	5	-1.5	i
CO[C@@H]1CN(C)C(=O)c2ccc(NC(=O)c3cnccn3)cc2OC[C@@H](C)N(CCc2ccccc2)C[C@H]1C	6.3	3	2	7.3	i
CCC(=O)Nc1ccc2c(c1)OC[C@H](C)N(Cc1cccc(F)c1)C[C@@H](C)[C@@H](OC)CN(C)C2=O	3.3	-5	-8	5.6	i
CCC(=O)NC[C@@H]1[C@@H](c2ccc(-c3ccccc3)cc2)[C@H](CO)N1C(=O)C1CC1	-0.4	-5	-11	0.8	i
O=C(C[C@H]1C=C[C@@H](NC(=O)CCN2CCCCC2)[C@H](CO)O1)NCc1ccc(Cl)c(Cl)c1	1.5	0	3	-0.1	i
COCC(=O)Nc1ccc2c(c1)C(=O)N(C)C[C@@H](OC)[C@H](C)CN(Cc1ccccc1F)[C@H](C)CO2	1.3	-4	-10	1.3	i
CN1CCN(C(=O)[C@H]2[C@H](CO)[C@H]3Cn4c(cccc4=O)[C@H]3N2Cc2cc(F)ccc2F)CC1	-1.3	0	-6	-0.7	i
C[C@@H]1CN([C@@H](C)CO)C(=O)Cc2cc(NC(=O)Cc3ccccc3)ccc2O[C@@H]1CN(C)C(=O)Nc1ccc(F)cc1	-1.8	3	3	-0.6	i
CCCCCCC12Cc3cc(OC)c(OC)cc3C(O1)c1c(cc(C)oc1=O)O2 (centres undefined)	2.6	-6	1	7.3	i
CCCC#Cc1ccc([C@H]2[C@@H](C#N)N(S(C)(=O)=O)[C@@H]2CO)cc1	0.2	-3	-7	3.5	i
O=C(c1ccccc1F)N1C[C@H]2[C@@H](c3ccccc31)[C@@H](CO)N2C(=O)c1cccnc1	2.9	-1	-3	-0.7	i
NC(=O)N/N=C/c1ccc(-c2ccc(S(=O)(=O)Nc3ncccn3)cc2)o1	-1.0	16	9	-2.5	i
C[C@@H]1CN([C@H](C)CO)C(=O)c2cccc(NC(=O)c3cnccn3)c2O[C@@H]1CN(C)S(=O)(=O)c1ccc(F)cc1	-5.5	-2	-4	2.4	i
CCC(=O)N1CC2(CCN(Cc3nccs3)CC2)c2c(n(C)c3cc(OC)ccc23)[C@@H]1CO	0.2	-5	-3	1.6	+
CC(C)CC#Cc1ccc2c(c1)O[C@H](CN(C)Cc1cncnc1)[C@@H](C)CN([C@H](C)CO)S2(=O)=O	7.6	-14	-50	34	i
C[C@@H]1CCCCO[C@@H](CN(C)C)[C@H](C)CN([C@@H](C)CO)C(=O)c2cc(NS(=O)(=O)c3ccc(Cl)cc3)ccc2O1	-5.6	1	-2	-0.7	i
COc1ccc(NC(=O)OC[C@@H]2CSCCS(=O)(=O)N2)cc1	-1.1	15	17	4.7	i

Screening data: PubChem BioAssay, Broad Institute
